Screening results deposited in PubChem BioAssay by National Center for Advancing Translational Sciences (NCATS).
PINK1 modulator – changes PINK1 expression. Potency, µM (series often up to 76.6 µM), for inactives: top-dose activation (PINK1 increase), most hits filed as activators. hit rate 0.2% among 410,000. PINK1 immunofluorescence, high-content cytometry, 24 h; active = well fitted activation curve with a large enough effect; inconclusive = small, poorly fitted or top-dose-only effect; inactive = flat fitted curve, though single readings scatter; cell line not stated here;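 note: potency is the fitted concentration of half-maximal effect; % of control where 0% means no effect; nearly all actives have a fitted effect of over 65% in size; a mitochondrial uncoupler was the plate control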
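Cells are seeded, rested 12 hours, then given compound at five concentrations or DMSO for 24 hours. After fixation, blocking and antibody staining, PINK1 amount and mitochondrial localization are scored; CCCP serves as control.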
D2 ag – agonists of human D2 dopamine receptor (beta-arrestin). hit rate 0.084% among 360,000. DiscoveRx PathHunter D2 beta-arrestin, luminescence, 90 min; 100% = 57 uM dopamine signal. P14416. activation, % (no concentration beside the values); in the data active = activation above about 40%; inconclusive = about 15% to 40%; inactive = below about 15%; note: compound concentration not given in the record; the text of the record calls up to 30% inactive
Target sequence (P14416 whole entry, looked up): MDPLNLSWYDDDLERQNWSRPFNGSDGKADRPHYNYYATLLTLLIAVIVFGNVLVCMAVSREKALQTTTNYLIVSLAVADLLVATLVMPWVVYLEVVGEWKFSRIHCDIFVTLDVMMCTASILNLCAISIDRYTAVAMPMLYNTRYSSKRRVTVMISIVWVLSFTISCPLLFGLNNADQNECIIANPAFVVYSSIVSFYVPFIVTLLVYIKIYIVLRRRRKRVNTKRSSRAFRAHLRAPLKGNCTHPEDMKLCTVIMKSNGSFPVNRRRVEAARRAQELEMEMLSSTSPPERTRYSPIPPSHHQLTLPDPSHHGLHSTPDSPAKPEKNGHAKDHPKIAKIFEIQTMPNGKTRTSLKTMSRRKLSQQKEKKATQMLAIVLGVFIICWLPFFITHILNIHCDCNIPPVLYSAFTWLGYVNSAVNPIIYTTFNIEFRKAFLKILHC
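Agonist mode: compounds alone added to overnight-plated D2 PathHunter cells for 90 min at 37 C, with 57 uM final dopamine (EC100) defining full response. Beta-arrestin recruitment detected by chemiluminescent reagent, read after 1 h at ambient temperature.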
CtBP-E1A blk – blocks the CtBP interaction with E1A | AlphaScreen GST-E1A/His-CtBP binding, 1536-well; stronger effect = lower value; control for the full effect not named in the record | activity change, % (concentration not given with the values) | hit rate 0.49% among 340,000; in the data active means activity change below about -65%; inconclusive means about -30% to -65%; inactive means above about -30%; note: % is set by controls: 0 for no effect and ±100 for the full control effect
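Protein mix (5X: 125 nM each GST-E1A, His-CtBP) was incubated with pinned compound 2 h at 37 deg C in dark, in 50 mM Tris pH 8.0 buffer with 300 mM NaCl. Glutathione donor and nickel acceptor beads followed; AlphaScreen signal read after 1 h.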
D2 potentiator – positive allosteric modulators of human D2 dopamine receptor; P14416; hit rate 0.23% among 360,000; DiscoveRx D2 beta-arrestin cells, luminescence, 90 min; 100% = 57 uM dopamine signal; potentiation, % (concentration not given with the values); active = potentiation of 50% or more; inconclusive = 30% to 50%; inactive = 30% or less;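 note: compound concentration not given in the record; tested on top of an EC20 dose of dopamine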
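PathHunter beta-arrestin assay in DiscoveRx D2 cells. Compounds were added with an EC20 of dopamine (50 nM final) for 90 min at 37 deg C. Luminescence was read 1 h after detection reagent, with 57 uM dopamine as the EC100 control.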
Sfp inh – inhibitors of Bacillus subtilis Sfp phosphopantetheinyl transferase | Q9F4F7 | Biochemical Sfp PPTase activity, qHTS | Potency, µM, without a hit: max response, negative = inhibition, usual class: inhibitors | hit rate 3.5% among 310,000; active = well fitted inhibition curve with a large enough effect; inconclusive = small, poorly fitted or top-dose-only effect, or another doubt; inactive = no such curve, though single readings can be large or run the other way;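 note: the enzyme is Sfp with the accession as filed and its product quenches rhodamine fluorescence; potency is the fitted concentration of half-maximal effect; 0% = enzyme reaction without inhibitor and -100% = no enzyme wells; top concentration of the series not given in the record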
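Sfp 15 nM + cpd, 15 min RT; start w/ rhodamine-CoA 5 uM, BHQ-2-YbbR 12.5 uM (final); 50 mM Hepes pH 7.6, 10 mM MgCl2, 0.01% NP-40, 0.01% BSA; read 525/598 nm at 0 and 30 min.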
TRPV1 PAM – enhances activation of the human vanilloid receptor TRPV1; Q8NER1; TRPV1-expressing cells, Fluo-8 calcium influx, capsaicin EC20 potentiation; host cell line not named in the record; control for the full effect not named in the record; potentiation, % at 8.33 µM; hit rate 0.02% among 320,000; active means potentiation above 80%; inconclusive means 30% to 80%; inactive means below 30%; note: 0% is about no effect
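TRPV1-expressing cells were cultured overnight at 35.5C and loaded with Fluo-8 calcium dye for 40 to 90 min at room temperature. After a 10 s baseline, compound was added and calcium influx was read kinetically for 3 min (ex 480/em 520 nm).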
Six1-Eya2 blk – Six1/Eya2 interaction inhibition; Q15475+O00167; AlphaScreen GST-Six1/His-Eya2 binding, biochemical; stronger effect = lower value; control for the full effect not named in the record; activity change, % (no concentration beside the values); hit rate 0.56% among 360,000; in the data active = activity change below about -65%; inconclusive = about -30% to -65%; inactive = above about -30%; note: % is set by controls: 0 for no effect and ±100 for the full control effect; compound concentration not given in the record
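Compounds are tested against tagged Six1 and Eya2 proteins bridged by glutathione donor and nickel acceptor beads; after a one-hour incubation at 37 °C without light, AlphaScreen emission is recorded.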
* marks the source's active call; other numbers are inactive results; ? = inconclusive; . = no result given; & = joins results of further samples; [ ] = dose if it differs, or a comment.

SMILES | PINK1 modulator | D2 ag | CtBP-E1A blk | D2 potentiator | Sfp inh | TRPV1 PAM | Six1-Eya2 blk
COc1ccccc1OCCNC(=O)c1cc(C2CC2)nc2c1cnn2C(C)C | 1.4% | -0.7 | -5 | -19 | . | 17 | 1
CSc1nsc(SCC(=O)Nc2ccccc2C(=O)O)n1 | -0.6% | 6.0 | 3 | 4 | -45% | 7 | -13
CCOC(=O)N1CC=C2C(C#N)=C(N)C(C#N)(C#N)[C@H](c3ccsc3)[C@H]2C1 | 5.5%[38.3 µM] | -4.0 | -5 | -13 | -6% | -1 | -8
O=C(COC(=O)/C=C/c1ccc([N+](=O)[O-])cc1)NCc1ccco1 | 0.5% | 0.8 | -10 | -6 | -23% | -4 | -14
CCOc1ccc(-c2nnc(-c3cccs3)o2)cc1OCC | 1.7% | -1.7 | 1 | 3 | -6% | -17 | 2
C[C@H](CO)N1C[C@H](C)[C@@H](CN(C)S(=O)(=O)c2ccccc2)Oc2c(NC(=O)Nc3ccc4c(c3)OCO4)cccc2C1=O | 1.0% | 4.8 | 19 | . | . | . | 8
CSc1nc(-c2ccco2)nn1S(=O)(=O)c1ccc(C)cc1 | 0.3% | 3.5 | 7 | 0 | 45µM* | -1 | -1
CC1=CC2=NC(=O)/C(=C\c3cccn3CCOc3ccccc3C)C(=N)N2O1 | 0.3% | -4.0 | -18 | -5 | -5% | -6 | -28
O=C(c1ccco1)N1CCN(C(=O)c2cccc3c2C(=O)N(C2CCCCC2)C3)CC1 | 1.6% | -1.1 | 0 | -15 | -23% | 6 | -4
CCOc1cc(/C=N/n2c(C)nnc2C)ccc1O | -0.2% | -4.8 | . | -14 | 20% | -3 | 2
O=C(Nc1ccccc1)OCCNC(=O)c1cccc(Cl)c1 | -2.8% | 0.8 | -1 | -6 | 13% | -15 | 5
COc1cccc(C2CC(c3cccc(C)c3)n3ncnc3N2)c1 (stereo unspecified) | 2.5% | -3.0 | 5 | -2 | 9% | 13 | 0
Cc1ccc(C(=O)N/C(=C\c2ccc(C)o2)C(=O)O)cc1 | 0.2% | -1.0 | 5 | 6 | -3% | 13 | -1
CC1CCCN(C(=O)COC(=O)c2cc(Br)ccc2O)C1 (stereo unspecified) | -2.9% | -4.3 | 5 | -29 | . | . | -2
CCOC(=O)CCn1cnc2ccc([N+](=O)[O-])cc2c1=O | -0.7% | -1.1 | 2 | -7 | 6% | 5 | 2
CCOc1cc(/C=N/NC(=O)CN2CCCCC2)ccc1OCc1cccc(Cl)c1 | 3.2% | -1.6 | -2 | -7 | 0% | 14 | -26
CCOC(=O)C(Cc1c[nH]c2ccc([N+](=O)[O-])cc12)(NC(C)=O)C(=O)OCC | -0.7% | -1.2 | 5 | -8 | . | . | -5
CCN1CNC(=S)N(c2cc(C)ccc2C)C1 | -4.7%[38.3 µM] | -1.1 | 10 | 8 | 10% | -1 | 8
CCOC(=O)c1c(NC(=O)CSc2nc3c(c(=O)n(C)c(=O)n3C)n2CC)sc(C)c1C | 1.6%[38.3 µM] | 2.1 | -1 | -4 | 11% | -4 | 9
NC(=O)C1CCN(C(=O)N2c3ccccc3Sc3ccccc32)CC1 | . | -2.0 | 49 | -8 | 0% | -10 | 17
CCCC(C)c1nnc(NC(=O)C2CC(=O)N(c3ccc(OCC)cc3)C2)s1 (stereo unspecified) | 0.9% | -1.7 | 1 | -4 | 6% | 6 | 7
O=C(CCC1CCCCC1)NC1CCCCC1 | 0.5% | 0.4 | -1 | 2 | . | . | 5
Cc1cc(OCC(=O)N2CCN(c3ccccn3)CC2)cc(C)c1Br | 0.5% | -3.1 | 3 | -17 | -15% | 1 | 0
CN(C)S(=O)(=O)c1cccc(NC(=S)Nc2ccc(Cl)cc2Cl)c1 | 16µM* | -4.5 | -10 | -24 | ? | 1 | -2
COc1ccc(S(=O)(=O)N(C)C[C@H]2Oc3ccc(NC(=O)Nc4ccccc4)cc3C(=O)N([C@H](C)CO)C[C@@H]2C)cc1 | 1.2% | 1.9 | -1 | -16 | . | . | -7
CCc1ccccc1NC(=O)C1CC(c2ccc(F)cc2)=NO1 (stereo unspecified) | -0.5% | -1.7 | 5 | -3 | 16% | 4 | 5
CCC(C)(C)n1nnnc1CN1CCc2ccccc21 | 0.6% | -3.8 | -1 | -3 | 1% | -3 | -5
CCn1c(Oc2cccc(Br)c2)nc2c1c(=O)n(C)c(=O)n2C | 2.3% | -1.4 | -11 | -3 | -8% | -5 | -6
CC(=O)c1cccc(NC(=O)c2cc(=O)[nH]c3ccc(S(=O)(=O)N4CCOCC4)cc23)c1 | 0.7% | -2.0 | 2 | -9 | . | . | -15
O=C(COC(=O)COc1ccc2c(c1)CCC2)Nc1ccccc1C(F)(F)F | 0.6% | -0.9 | 11 | -20 | . | . | 4
COc1ccc(CNC(=O)[C@@H](NC(=O)C2CCN(S(=O)(=O)c3ccc(C)cc3)CC2)C(C)C)cc1OC | 1.2% | 1.0 | . | -1 | 4% | 9 | 8
COc1ccccc1/C=C/C(=O)NC(=S)Nc1ccc(S(=O)(=O)N(C)c2ccccc2)cc1 | 0.5% | 0.6 | -3 | -12 | 8% | 5 | -5
CCOc1cccc(CNc2nnnn2C)c1 | 1.6% | -3.8 | -3 | 2 | 25% | 1 | -8
CCc1ccc(C2=NN(S(C)(=O)=O)C(c3cccs3)C2)cc1 (stereo unspecified) | 22%[38.3 µM] | -2.5 | 3 | -18 | -12% | -4 | 5
COc1ccc(O)c(/C=N/Nc2nc3ccccc3[nH]2)c1 | 6.1% | 1.7 | 5 | 2 | ? | 4 | 0
Nc1nc(CN2CCOCC2)cs1 | -2.1% | -1.2 | 3 | 1 | -13% | 5 | -2
NC(=O)C1CCN(CC(=O)Nc2ccccc2Sc2ccc(Cl)cc2)CC1 | 0.4% | -2.0 | -8 | -8 | -4% | 0 | -9
CC(=O)c1ccc(OC2(C)CCN(Cc3ccc(C)cc3)C2)cc1 (stereo unspecified) | 1.7% | -4.1 | -3 | -16 | . | . | -5
Cc1cc2nc3c(nc2cc1C)C1(C(=O)O)CCC3(C)C1(C)C (stereo unspecified) | 1.9% | -0.7 | 2 | -22 | 3% | -25 | 14
COc1ccc(NC(=O)c2nc[nH]c2C(=O)N2CCN(C(=O)OC(C)(C)C)CC2)cc1 | -0.9% | -2.2 | 0 | -5 | 6% | ? | 2
NC(=O)NC(=O)COC(=O)c1ccccc1OCc1ccc(F)cc1 | 2.9% | -2.6 | 9 | -9 | 11% | 14 | 7
O=C(NC1CCCC1)C(c1ccccc1)N(C(=O)c1ccno1)c1cccnc1 (stereo unspecified) | -2.6% | -2.6 | 2 | -18 | -19% | 5 | 5
COC(=O)C1=C(C)N(Cc2ccccc2)C(=NCC(C)C)N[C@H]1c1cccc(F)c1 | -0.1% | 0.1 | -12 | -12 | -5% | 14 | -9
CN(c1ccccc1)S(=O)(=O)c1cccc(C(=O)NCCc2ccc(O)c(O)c2)c1 | 1.2% | 12 | 0 | 10 | 18µM* | 4 | -9
CCN(CC)CCOC(=O)c1ccc(NC(=O)COc2cc(=O)n(CC)c3ccccc23)cc1 | -4.9%[38.3 µM] | -1.9 | 0 | -3 | 8% | -22 | -5
CC(CCc1ccccc1)NCC(O)c1ccc(O)c(C(N)=O)c1 (stereo unspecified) | 0.4% | 2.5 | 5 | -2 | 13%&1% | 4 | 3
CCCCSCCCNC(=S)Nc1ccccc1C | 0.9% | -3.2 | -5 | -5 | 23% | -7 | 1
CCCOc1ccc(C(=O)NCCc2ccccc2)cc1 | 0.7% | 2.9 | 3 | -4 | 14% | 18 | 8
CCCCCSc1nncc(=O)[nH]1 | -4.7%[38.3 µM] | -0.7 | 6 | 3 | -8% | -10 | 5
O=C(CN(C(=O)CCC(=O)Nc1ccccn1)C1CCCC1)NCc1ccc(F)cc1 | -0.2% | 3.8 | 6 | 0 | 3% | 9 | 5
CCc1c(C)c(C#N)c2nc3ccccc3n2c1N(C)C | 4.7% | 1.7 | 2 | -13 | -3% | -14 | 6
O=C(NNC(=S)Nc1ccccc1)Nc1ccccc1 | 0.1% | -12 | -8 | -14 | 7.1µM* | 3 | 5
Cn1c(=O)c2c(-c3ccc(C(C)(C)C)cc3)n(CC3CCCO3)cc2n(C)c1=O (stereo unspecified) | 0.1%[38.3 µM] | -1.4 | 4 | -8 | 0% | -3 | 0
CCOC(=O)c1c(NC(=O)CN2C(=O)NC3(CCCCC3C)C2=O)sc(C)c1C (stereo unspecified) | -0.7% | -5.5 | -1 | -5 | -6% | -1 | -14
COc1cc2c(cc1OC)CN(CC(=O)NC(=O)NCc1ccccc1)CC2 | 1.5% | -1.9 | 0 | -3 | -8% | -5 | -6
CCC(C(=O)NCc1ccco1)N(C(=O)CNS(=O)(=O)c1ccc(C)cc1)c1ccccc1OC (stereo unspecified) | -3.9% | -6.8 | -4 | -16 | 0% | -9 | -5
Cc1ccccc1OCC(O)Cn1nnc2ccccc21 (stereo unspecified) | 0.2% | -1.3 | 2 | -27 | 13% | ? | 2
Cc1cccc(OCC2CCCN(Cc3nc(C4CC4)no3)C2)c1 (stereo unspecified) | 1.3% | -4.3 | . | -10 | 14% | -1 | 7
O=C(O)c1ccccc1S(=O)(=O)NCC(O)COC1CCCCC1 (stereo unspecified) | 0.2%[38.3 µM] | -5.1 | 44 | -4 | 27% | 8 | 29
COc1cccc(C2=CC(c3cccc(OC)c3OC)n3nnnc3N2)c1 (stereo unspecified) | 4.1% | -4.1 | -1 | -19 | ? | -17 | -7

At a glance, part of the list above:
SMILES | PINK1 modulator | D2 ag | CtBP-E1A blk | D2 potentiator | Sfp inh | TRPV1 PAM | Six1-Eya2 blk
CCN(CC)CCOC(=O)c1ccc(NC(=O)COc2cc(=O)n(CC)c3ccccc23)cc1 | -4.9%[38.3 µM] | -1.9 | 0 | -3 | 8% | -22 | -5
CC(CCc1ccccc1)NCC(O)c1ccc(O)c(C(N)=O)c1 (stereo unspecified) | 0.4% | 2.5 | 5 | -2 | 13%&1% | 4 | 3
CCCCSCCCNC(=S)Nc1ccccc1C | 0.9% | -3.2 | -5 | -5 | 23% | -7 | 1
CCCOc1ccc(C(=O)NCCc2ccccc2)cc1 | 0.7% | 2.9 | 3 | -4 | 14% | 18 | 8
